From PubChem BioAssay
MgrA-DNA mod = alters Staphylococcus aureus MgrA binding to DNA; fluorescence polarization; 84,000 compounds, 0.13% hits; inhibition, %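 (about 10 µg/mL by stock and volumes)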;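 active means above 50% in either of two replicates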;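 further: 0% = protein plus DNA without compound and 100% = DNA alone without protein; higher means less MgrA bound to DNA so lower polarization; one replicate is shown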
Sa helicase inh = blocks Staphylococcus aureus DNA helicase. purified S. aureus helicase, fluorescence unwinding assay; about half of the hits fall short of the stated cut. inhibition, %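 (tested at about 80 µM)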. 120,000 compounds, 0.05% hits;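 active means both duplicates at 50% or more, or one of them with a favoured structure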;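 further: 0% = mean of negative control wells and 100% = mean of positive control wells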
* marks the source's active call; other numbers are inactive results; nt = no result given.

Values in the order: Sa helicase inh	MgrA-DNA mod
Cc1ccc(SCc2nccn2Cc2ccc(Cl)cc2)cc1
→ nt	-1.7
C=CCn1c(=O)c2ccccc2n2c(SCC(=O)N3CCc4ccccc43)nnc12
→ -14	nt
CCCn1c(=O)c(C#N)nn(-c2ccc(OC)cc2)c1=O
→ nt	-2.0
COc1ccc(C2C3CCc4ccccc4C3=NN2C(=O)c2cccs2)cc1 (configuration not stated)
→ nt	1.0
N#CCn1c(CN2CCCCC2C(N)=O)nc2scc(-c3ccccc3)c2c1=O (configuration not stated)
→ -33	nt
Cc1c(NC(=O)C(C)n2nc(C(=O)O)c3ccccc3c2=O)c(=O)n(-c2ccccc2)n1C (configuration not stated)
→ -10	nt
CCOc1cc(C(=O)Nc2ccc3nc(N4CCN(CC)CC4)cc(C)c3c2)cc(OCC)c1OCC
→ -15	nt
O=C(O)CC1(CC2=NS(=O)(=O)c3ccccc3N2)CCCC1
→ 9	-0.9
CC1=C(C)CS(=O)N(S(=O)(=O)c2ccccc2)C1 (configuration not stated)
→ 21	nt
O=C(NCCc1ccco1)c1ccc(Cn2c(SCc3ccccc3)nc3cccnc32)cc1
→ -19	nt
COc1cccc2c1oc(=O)c1c(NC(C)=O)nc(-c3cccs3)nc12
→ 5	1.2
CCCC(=O)Nc1ccccc1NC(=O)CCC
→ 3	-1.4
CC(=NC1CC1)c1c(C)[nH]n(-c2nc3ccccc3s2)c1=O
→ -10	-0.9
O=C1c2ccccc2C2=Nc3ccccc3SC(c3ccc(F)cc3)C12 (configuration not stated)
→ 13	0.2
Clc1ccc2c(c1)CCN2
→ 7	-0.8

Part of the list above in another layout.
> CC1=C(C)CS(=O)N(S(=O)(=O)c2ccccc2)C1 (configuration not stated)
  Sa helicase inh: 21
  MgrA-DNA mod: nt
> CC(=NC1CC1)c1c(C)[nH]n(-c2nc3ccccc3s2)c1=O
  Sa helicase inh: -10
  MgrA-DNA mod: -0.9

Carrying on.
Values in the order: Sa helicase inh	MgrA-DNA mod
CC1Cc2ccccc2N1C(=O)COc1c(F)c(F)c(F)c(F)c1F (configuration not stated)
→ 8	nt
COc1ccc(C2=NOC(C(=O)NC(C)C)C2)cc1OC (configuration not stated)
→ 5	nt
CCOC(=O)N1CCN(c2nc(N)c(C#N)c(CC#N)c2C#N)CC1
→ -16	nt
CCOC(=O)c1sc2nc(N)c(C#N)c(-c3ccc(Cl)cc3)c2c1N
→ 7	nt
Cc1cc(C)n2ncc(C(=O)N(C)Cc3ccccc3)c2n1
→ 20	nt
N/C(COc1ccc(-c2nnco2)cc1)=N\OC(=O)c1ccc(Cl)cc1
→ -12	nt
N#Cc1c(NC(=O)CCN2CCOCC2)sc2c1CCCCC2
→ -12	nt
CCN(CC)C(=O)NCC12CC3CC(CC(C3)C1)C2
→ 16	6.3
CSc1cccc(-n2nnc(C(N)=O)c2C)c1
→ 3	-0.3
CCOC(=O)C1CCc2nc3ccccc3c(=O)n21 (configuration not stated)
→ 7	-0.7
O=C1C=C/C(=N\OC(=O)c2ccccc2)C2=C1C1C=CC2C1 (configuration not stated)
→ 5	nt
N#CC(C(=O)c1ccc(Cl)cc1Cl)c1nc2ccccc2[nH]1 (configuration not stated)
→ 15	-3.1
O=C(CSc1nc2ccccc2s1)NNc1ncnc2c1cnn2Cc1ccccc1
→ -8	nt
S=C(NC1CCCCCCCCCCC1)NC1CC2C=CC1C2 (configuration not stated)
→ nt	2.2
COc1ccc2oc(=O)c(C(=O)NC3CCCCC3C)cc2c1 (configuration not stated)
→ -5	2.2

Other structures.
Values in the order: Sa helicase inh	MgrA-DNA mod
O=C1c2cccc3cccc(c23)N1CSc1nc2ccccc2s1
→ 3	1.1
CCCCc1nc2n[nH]c(N)c2c2c1CCCC2
→ 4	nt
O=C1N(c2ccccc2)C(c2ccccc2)C1(F)F (configuration not stated)
→ -6	-0.4
Cc1cc(S(C)(=O)=O)c2ccccc2n1
→ nt	-4.7
CC(=O)N/C(=C\c1ccc(OC(C)C)cc1)C(=O)O
→ nt	-3.7
CCN1CCCC(OC(=O)c2ccc3c(=O)n4c(nc3c2)CCCCC4)C1 (configuration not stated)
→ -2	nt
CC1CN(S(=O)(=O)c2ccc(F)c(F)c2)CC(C)O1 (configuration not stated)
→ -14	-1.2
COc1ccccc1OCC(=O)O
→ -17	nt
COc1ccc(C)cc1NC(=O)C(OC(=O)c1ccc(Br)o1)c1ccccc1 (configuration not stated)
→ -10	nt
Cn1c(CSCC(=O)Nc2ccccc2)nnc1SCc1ccc(Cl)cc1
→ nt	-1.9
NC(=O)Cn1c(=O)n(Cc2ccccc2)c(=O)c2cccnc21
→ 17	5.9
c1ccc(-c2nc3cnccn3c2Nc2ccc3c(c2)OCCO3)cc1
→ -5	nt
Cc1cc(OCC(=O)Nc2ccccc2Cc2ccccc2)no1
→ -5	nt
CS(=O)(=O)c1ccc2nc(NC(=O)C3CCCO3)sc2c1 (configuration not stated)
→ 10	1.4
O=C(Nc1ccc2oc(-c3ccc(F)cc3Cl)nc2c1)c1ccc([N+](=O)[O-])cc1[N+](=O)[O-]
→ nt	-0.8

(more compounds)
Values in the order: Sa helicase inh	MgrA-DNA mod
CCOc1ccc(CN2CCC(n3nc(-c4ccoc4C)oc3=O)CC2)cc1
→ 7	-0.6
COc1ccc(OC)c(/C=c2\sc3nnc(-c4ccccc4Cl)n3c2=O)c1
→ -15	16
CCOc1ccc(/C=N/NC=O)cc1
→ -2	nt
CCOC(=O)c1ccc2c(c1)C1C=CCC1C(c1ccc(Cl)cc1Cl)N2 (configuration not stated)
→ nt	-2.9
COC(=O)c1ccc(COC(=O)CNS(=O)(=O)c2ccccc2)cc1
→ 5	1.1
Cc1cc(C)nc(SCc2ccc(C(=O)N/N=C/c3ccco3)cc2)n1
→ 9	nt
O=C(CN(C1=NC2CS(=O)(=O)CC2S1)c1ccccc1F)Nc1ccccc1 (configuration not stated)
→ 9	nt
Cc1cccc(Cn2c(=O)n(-c3ccccc3)c(=O)c3sccc32)c1
→ 11	0.1
CC(=O)Oc1ccc(CC2SC(=O)NC2=O)cc1 (configuration not stated)
→ nt	0.0
O=C(NCCCl)c1ccc2ccccc2n1
→ 2	-3.1
O=C(O)CCN1C(=O)SC(Nc2ccccc2)C1=O (configuration not stated)
→ 7	0.5
Oc1ccc(C2N(c3ccccc3)CCN2c2ccccc2)cc1
→ -13	0.8
Cc1[nH]c2ccc(C(=O)NN)cc2c1C
→ 7	5.2
O=C(Oc1ccc2c(=O)c(Cl)coc2c1)c1cccnc1
→ 24	4.6
Nc1nc(-c2ccco2)nc(-c2ccco2)n1
→ -3	4.4

Next records:
Values in the order: Sa helicase inh	MgrA-DNA mod
CN1CCN(c2nc(N3CCCc4ccccc43)nc(N3CCCc4ccccc43)n2)CC1
→ -7	nt
COc1ccc(-n2cccc2C=C(C#N)C#N)cc1
→ -5	0.2
COC(=O)c1cc(-c2ccccc2)nc2c1c(C)nn2-c1ccccc1
→ 16	-5.1
CCN(CC(=O)NCc1ccc(F)cc1)C(=O)C1CCCC1
→ 17	nt
CC(C)N1CCN(C(=O)c2ccccc2)CC1
→ 13	nt
O=C(Nc1nnc(CCS(=O)(=O)c2ccc(Cl)cc2)s1)c1ccc([N+](=O)[O-])cc1
→ nt	0.8
NC(=O)N1CCC(C(=O)O)CC1
→ -16	nt
Cc1nc2ccccc2nc1SCC(=O)Nc1ccccc1
→ -4	-2.8
O=C(O)c1cn2ccccc2n1
→ -22	nt
COc1ccc(-c2cc(C(F)(F)F)[nH]n2)cc1OC
→ nt	-0.5
COc1ccc(CCN(C)CCCC(C#N)(c2cc(OC)c(OC)c(OC)c2)C(C)C)cc1OC (configuration not stated)
→ nt	1.3
S=C(Nc1ccc2[nH]ccc2c1)NC1CCCCC1
→ nt	0.0
O=C(OCCCCN1C(=O)c2ccccc2C1=O)c1n[nH]c2ccccc12
→ -7	nt
CC(=O)Nc1ccccc1NC(=O)CN(C)S(=O)(=O)c1ccccc1
→ 4	2.1
S=c1[nH]ccn1Cc1ccccc1
→ 5	nt

New compounds follow
Values in the order: Sa helicase inh	MgrA-DNA mod
Cc1onc(-c2c(Cl)cccc2Cl)c1NC(=O)N(C)C1CCCCC1
→ 3	nt
Nc1ccc(-c2nnc(Nc3ccccc3C(F)(F)F)s2)cc1
→ nt	2.0
CCC(C)NS(=O)(=O)c1ccccc1C(F)(F)F (configuration not stated)
→ -7	nt
CC1(c2ccccc2)NC(=O)N(NC(=O)CSc2nnc(-c3ccccc3)o2)C1=O (configuration not stated)
→ -11	nt
O=C(c1ccc(Cn2c(=O)[nH]c3ccsc3c2=O)cc1)N1CCN(c2ccccn2)CC1
→ 5	nt
O=C1OC(C(=O)Nc2ccccc2)Cc2ccccc21 (configuration not stated)
→ -6	nt
COc1ccc(/C=C2\SC(=S)N(CCC(=O)N3CCN(C)CC3)C2=O)cc1
→ -13	nt
CN1CCN(Cc2c(C#N)c3ccccc3n2C)CC1
→ -1	2.7
CC(=O)SC1CC(=O)N(c2ccc(Cl)cc2)C1=O (configuration not stated)
→ nt	0.4
CN=c1scc(-c2ccc(Cl)cc2)n1C
→ 1	nt
CCCOc1ccc(C(=O)Nc2ccc(C(=O)OCC)cc2)cc1
→ -16	nt
COc1cccc(NC(=O)CC2OCCN(Cc3ccccc3)C2=O)c1 (configuration not stated)
→ 5	nt
O=C(OCc1cccc(C(F)(F)F)c1)c1ccc[nH]c1=O
→ -5	nt
O=C(CSc1ncnc2c1nnn2Cc1ccccc1F)NCc1ccco1
→ -19	nt
Cc1c(C(=O)Nc2ccc(S(N)(=O)=O)cc2)sc2nc3n(c(=O)c12)CCCC3
→ 15	nt

Reformatted: results already given
smiles: Cc1cc(C)n2ncc(C(=O)N(C)Cc3ccccc3)c2n1
  Sa helicase inh: 20
  MgrA-DNA mod: nt

smiles: N/C(COc1ccc(-c2nnco2)cc1)=N\OC(=O)c1ccc(Cl)cc1
  Sa helicase inh: -12
  MgrA-DNA mod: nt

smiles: N#Cc1c(NC(=O)CCN2CCOCC2)sc2c1CCCCC2
  Sa helicase inh: -12
  MgrA-DNA mod: nt

smiles: CCN(CC)C(=O)NCC12CC3CC(CC(C3)C1)C2
  Sa helicase inh: 16
  MgrA-DNA mod: 6.3

Following part.
Values in the order: Sa helicase inh	MgrA-DNA mod
O=c1[nH]c(-c2ccc(F)cc2)nc2ccccc12
→ -23	nt
Cn1c2ccccc2c2nn(-c3ccccc3)c(=O)cc21
→ 17	0.7
CC(CO)N1CCS(=O)(=O)CC1 (configuration not stated)
→ nt	2.1
CCc1ccc(N2CC(C(=O)NCc3ccc4c(c3)OCO4)CC2=O)cc1 (configuration not stated)
→ -9	-3.7
Cc1c(Cl)cccc1NC(=O)C1NC(=O)CC1c1ccccc1 (configuration not stated)
→ 7	1.6
COC(=O)c1cnc(N2CCCN(C(=O)c3cc(C(C)(C)C)nn3C)CC2)nc1C(F)(F)F
→ nt	-2.4
CC(=O)NC(Nc1ccccc1)(C(F)(F)F)C(F)(F)F
→ nt	0.5
c1ccc(CCn2nnnc2C(c2cccnc2)N2CCc3ccccc32)cc1 (configuration not stated)
→ -7	-0.5
CCOc1cc(/C=C2\NC(=S)NC2=O)ccc1OCc1ccc(Cl)cc1
→ nt	3.6
O=C(O)c1cc(Sc2ccccc2)nc2ccccc12
→ 11	3.2
CC(Sc1ncn[nH]1)C(=O)Nc1ccc(Cl)cc1 (configuration not stated)
→ -2	1.0
O=C(Cn1nc(-c2ccc3c(c2)OCCO3)ccc1=O)Nc1cccc2cccnc12
→ 6	-9.2
O=C(Cn1nc2n(c1=O)-c1ccccc1SC2)N/N=C/c1ccncc1
→ 17	nt
S=C(c1ccccc1)N1CCN(Cc2ccccc2)CC1
→ nt	-2.6
COc1ccc(OC)c(C2C3=C(CCCC3=O)OC3=C2C(=O)CCC3)c1
→ nt	2.9

(more compounds)
Values in the order: Sa helicase inh	MgrA-DNA mod
O=C(OCn1nnc2ccccc2c1=O)C1=COCCO1
→ -22	nt
O=C1CC2(CCCC2)C(=O)N1CCNc1ncccc1C(F)(F)F
→ nt	0.1
COC(=O)c1ccc(NC(=O)C2CC(=O)N(CCc3ccc(OC)c(OC)c3)C(=Nc3ccccc3)S2)cc1 (configuration not stated)
→ nt	1.0
Cc1ccc(NC(=O)CSc2nc3n[nH]c(C)c3c(=N)n2-c2ccccc2C)cc1
→ 1	nt
O=C(Nc1c(C(=O)c2ccc(Br)cc2)oc2ccccc12)c1ccco1
→ 23	nt
CCOC(=O)CSc1nc(C2CC2)cc(-c2ccc(OC)cc2)c1C#N
→ nt	3.7
Nc1cccc(NC(=O)CCC(=O)O)c1
→ 2	-2.1
NC(=O)c1cc(Br)cc2c1OCC2
→ nt	-0.2
O=C(O)C1CCN(CCc2ccccn2)CC1
→ -2	-2.3
COc1ccc(-n2c(C)cc(C(=O)COC(=O)c3ccc(C#N)cc3)c2C)cc1
→ -9	nt
N#CC(C#N)=Cc1ccc(-c2ccc(S(N)(=O)=O)cc2)o1
→ 1	4.8
CC(=O)Nc1ccc(NC2SC(=O)N(c3ccccc3)C2=O)cc1 (configuration not stated)
→ -18	nt
O=C(CSc1nnc(-c2cccs2)o1)N1c2ccccc2CCc2ccccc21
→ 3	-0.8
O=C(C1CCC(Cn2c(=S)[nH]c3ccccc3c2=O)CC1)N1CCCC1 (configuration not stated)
→ 0	0.2
Cc1ccc(S(=O)(=O)N(CCC#N)CC2CCCO2)cc1 (configuration not stated)
→ nt	1.9

(cont.)
Values in the order: Sa helicase inh	MgrA-DNA mod
O=C(Nc1c[nH]c(=O)[nH]c1=O)NC1CCCC1
→ 30	nt
Cc1ccc(S(=O)(=O)NC(=O)c2cc(C)n(CCN(C(C)C)C(C)C)c2C)cc1
→ -11	nt
Cc1ccc(NC(=O)c2cc3c(=O)oc4ccccc4c3n2C)cc1F
→ 17	0.6
COc1cc(CNc2ccc(C(=O)O)cc2)ccc1OCc1ccc(Cl)cc1
→ 8	4.5

Not all compounds are listed (hit frequency here may not be typical).
